# NPYLR7 agonist = mosquito NPYLR7 agonism. HEK293T NPYLR7/Galpha15, GCaMP6s calcium fluorescence. activation, % at 10 µM. hit rate 0.15% among 270,000; in the data active means activation above about 40%;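 further: 0% = vehicle and 100% = reference agonist at the receptor; some compounds past the cut are filed as inactive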
# NPYLR7 agonist max-min = further read-out of NPYLR7 agonist, marked with its call; activation, %; measured here: Max-Min RFU normalised activation; some inactives read as strong as hits;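 span of the calcium signal over five minutes; 0% = vehicle and 100% = native peptide agonist; compound fluorescence can raise it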
# * hit, by the source's call; & = joins results of further samples.
SMILES,NPYLR7 agonist,NPYLR7 agonist max-min
COc1ccccc1CN1CCN(c2cc(Oc3ccc(Cl)cc3)ncn2)CC1C (centres undefined),-3,-3
COc1ccc(-c2ccc3c(c2)CC(CNC(=O)c2cccc(-n4nc(C)cc4C)c2)O3)nn1 (centres undefined),-1,-5
COCCN1CCCC[C@]2(C[C@H](C(=O)O)[C@H](c3ccco3)N2C(=O)c2ccco2)C1=O,2,0
Cc1cc(C)n(-c2cc(NCCNS(=O)(=O)c3ccc(F)cc3)ncn2)n1,-8,-13
Cc1cc(O)c(CN2CCN(CCO)CC2)c2c1C(=O)/C(=C/c1cc3ccccc3o1)O2,80*,84*
CCOc1ccc(N=C2S/C(=C/c3ccccn3)C(O)=C2C(=O)OC)cc1,-6,0
CCOC(=O)C1CCCN(C(=O)c2cc(-c3cccc(OC)c3)nc3cc(-c4ccccc4)nn23)C1 (centres undefined),0,9
O=C(CC1CCCC1)N1CCC2(CCCN(Cc3ccc(F)c(F)c3)C2)C1 (centres undefined),-3,-5
CCc1ccc(C=NNc2ncnc3sc(C)c(C)c23)cc1,2,-2
O=C(Nc1nc2c(s1)C(=O)CC(C(=O)N1CCC3(C=Cc4ccccc43)CC1)C2)c1ccsc1 (centres undefined),7,4
CCc1nnc(-c2cc3ccccc3n2CC(=O)N(CC)CC)o1,-2,-3
OC(CCN1CCCCC1)(c1ccccc1)C1CCCCC1 (centres undefined),-3&-15&0&-11,-10&-19&26&-13
O=[N+]([O-])c1ccc(SNc2ccc(C(F)(F)F)cc2[N+](=O)[O-])cc1,1,1
Cc1ccc(NC(=O)CC(=O)NCc2nc(-c3cccc(C)c3)no2)cc1,18,2
Cc1sc2ncnc(N/N=C\c3c(O)ccc4ccccc34)c2c1C,5,4
COc1cccc(-c2nsc(NC(=O)c3cccc(C)n3)n2)c1,-6,-9
COC(=O)c1cc(C)nc(-c2ccc(C(C)N3CCCCC3)cc2)n1 (centres undefined),11,9
O=[N+]([O-])c1ccc(C2Oc3ccccc3C3CC(c4ccc5c(c4)OCCO5)=NN32)cc1 (centres undefined),1,2
COc1cccc(CSc2nnc(C(C)NC(=O)c3ccc(OC)cc3OC)n2-c2ccc(C)cc2)c1 (centres undefined),-8,0
CN1CCC2(CC1)CN(Cc1ccc(S(C)(=O)=O)cc1)CCN2C,6,-6
CC(=O)N1CCCn2nc(C(=O)NCc3ccc4c(c3)CCCO4)cc2C1,-2,-3
COC(=O)CCC(=O)NC1CC(=O)N(CCc2cccc(Cl)c2)C1 (centres undefined),5,1
O=C(CN(CC1CCCO1)C(=O)c1ccc(Cl)cc1)N(Cc1ccc(F)cc1)Cc1cccs1 (centres undefined),-3,8
COCC1(NC(=O)C2CCCN(c3ccccn3)C2)CCCC1 (centres undefined),8,7
N#CCCC(CCC#N)C1=NCCc2ccccc21,6,3

# More records follow:
SMILES,NPYLR7 agonist,NPYLR7 agonist max-min
CN(C)c1ccc(C=NNC(=O)c2ccco2)cc1,-2,-7
CC(NS(=O)(=O)c1ccccc1-c1ccccc1)C1CCCO1 (centres undefined),6,5
CC(=O)N1CCN(S(=O)(=O)c2cn(C)c(Cl)n2)CC1,-15,-14
CCN(C(C)C(=O)Nc1ccc(C)cc1)S(=O)(=O)c1ccccc1Br (centres undefined),11,7
O=C1/C(=C/c2ccc(Cl)cc2)C=C(c2ccccc2)N1c1cccc(Cl)c1Cl,9,16
Cc1cccc(-c2cc(N)n(-c3ccc(C(=O)NCCc4ccccc4)cc3)n2)c1,-4,-6
CC1CCN(Cc2nnnn2CCCC(=O)NCc2scnc2-c2ccccc2)CC1,1,-3
COc1ccc(S(=O)(=O)NCCn2nc(-c3ccc(F)cc3)ccc2=O)cc1C,1,-1
Cc1cn2c3c(=O)n(CC(N)=O)c(=O)n(C)c3nc2n1-c1ccc(Br)cc1,1,-2
Cc1csc2nc(O)c(C(=O)NC(c3ccccc3)c3ccccc3)c(=O)n12,-2,49
CCOC(=O)c1[nH]c2ccccc2c1NC(C)=O,0,9
CN(CC(=O)NC1CC2CCC1(C)C2(C)C)S(=O)(=O)c1ccc(Cl)s1 (centres undefined),12,11
O=C(NCCc1csc(-c2cnccn2)n1)c1cn2c(n1)CNCC2,1,0
Cc1cccn2cc(C(=O)NCc3cccnc3N(C)C)nc12,8,7
Cc1cccc(Cn2c(=O)c3c(nc4n(CCCn5ccnc5)c(C)cn34)n(C)c2=O)c1,1,10
CCc1nc2ccc(C(=O)N(C)Cc3ccco3)cn2c1N(CC)C(=O)NCCc1ccccc1,-12,-17
COc1cc(/C=C/c2ccc(O)cc2)cc(OC)c1,-2,-6
Cc1nc(N2CCCC2)ccc1NC(=O)C1(c2ccccc2)CC1,0,-1
Cc1ccc(C)c(-c2nn(CN3CCOC(C(N)=O)C3)c(=O)c3ccccc23)c1 (centres undefined),6,2
c1ccc(-c2cc(-c3nnc(SCc4cccc(-n5cccc5)c4)n3Cc3ccco3)c3ccccc3n2)cc1,1,9
CCCc1nc(CN(C)c2nc(C)nc3sccc23)no1,1,-1
CN(CC(=O)NCc1ccco1)C(=O)C=Cc1ccsc1,2,3
Cc1ccc(C(NC(=O)C2CCN(Cc3cccc(C(F)(F)F)c3)CC2)c2ccccn2)cc1 (centres undefined),-8,0
CCOC(=O)c1cc(C)sc1NC(=O)c1cc(-c2ccc(OC(C)C)cc2)nc2ccccc12,2,-4
CC(C)(NC(=O)OCc1ccccc1)C(=O)N1CCOC(COCc2ccc(F)cc2Cl)C1 (centres undefined),3,1

# A different layout for part of the listing above:
compound	NPYLR7 agonist	NPYLR7 agonist max-min
Cc1cccc(-c2cc(N)n(-c3ccc(C(=O)NCCc4ccccc4)cc3)n2)c1	-4	-6
CC1CCN(Cc2nnnn2CCCC(=O)NCc2scnc2-c2ccccc2)CC1	1	-3
COc1ccc(S(=O)(=O)NCCn2nc(-c3ccc(F)cc3)ccc2=O)cc1C	1	-1
Cc1cn2c3c(=O)n(CC(N)=O)c(=O)n(C)c3nc2n1-c1ccc(Br)cc1	1	-2
Cc1csc2nc(O)c(C(=O)NC(c3ccccc3)c3ccccc3)c(=O)n12	-2	49
CCOC(=O)c1[nH]c2ccccc2c1NC(C)=O	0	9
CN(CC(=O)NC1CC2CCC1(C)C2(C)C)S(=O)(=O)c1ccc(Cl)s1 (centres undefined)	12	11
O=C(NCCc1csc(-c2cnccn2)n1)c1cn2c(n1)CNCC2	1	0
Cc1cccn2cc(C(=O)NCc3cccnc3N(C)C)nc12	8	7
Cc1cccc(Cn2c(=O)c3c(nc4n(CCCn5ccnc5)c(C)cn34)n(C)c2=O)c1	1	10
CCc1nc2ccc(C(=O)N(C)Cc3ccco3)cn2c1N(CC)C(=O)NCCc1ccccc1	-12	-17
COc1cc(/C=C/c2ccc(O)cc2)cc(OC)c1	-2	-6
Cc1nc(N2CCCC2)ccc1NC(=O)C1(c2ccccc2)CC1	0	-1
Cc1ccc(C)c(-c2nn(CN3CCOC(C(N)=O)C3)c(=O)c3ccccc23)c1 (centres undefined)	6	2
c1ccc(-c2cc(-c3nnc(SCc4cccc(-n5cccc5)c4)n3Cc3ccco3)c3ccccc3n2)cc1	1	9
CCCc1nc(CN(C)c2nc(C)nc3sccc23)no1	1	-1
CN(CC(=O)NCc1ccco1)C(=O)C=Cc1ccsc1	2	3
Cc1ccc(C(NC(=O)C2CCN(Cc3cccc(C(F)(F)F)c3)CC2)c2ccccn2)cc1 (centres undefined)	-8	0
CCOC(=O)c1cc(C)sc1NC(=O)c1cc(-c2ccc(OC(C)C)cc2)nc2ccccc12	2	-4
CC(C)(NC(=O)OCc1ccccc1)C(=O)N1CCOC(COCc2ccc(F)cc2Cl)C1 (centres undefined)	3	1

# Going on with the list.
SMILES,NPYLR7 agonist,NPYLR7 agonist max-min
Cc1cc(C(=O)N(C)C2CCCC2)c(C)o1,14,9
COc1ccc(S(=O)(=O)N2CCCC(C)C2)cc1N1CCN(S(=O)(=O)c2cccc(C(F)(F)F)c2)CC1 (centres undefined),22,13
Cc1onc(-c2ccccc2Cl)c1C(=O)NCc1n[nH]c2c1CCC2,23,17
Cc1ccccc1Cn1c(C(=O)N2CCC(C(N)=O)CC2)cc2ccsc21,-1,12
CN(Cc1cc(-c2cccs2)n[nH]1)C(=O)c1cc2n(n1)CCCNC2,7,-6
CCn1c(N)c(C(N)=O)sc1=S,4,10
C=CCn1c(NCc2c(O)ccc3ccccc23)nc2ccccc21,14,5
O=C(c1ccc(Cl)cc1)N1CCN(C(=O)c2cc(F)ccc2Br)CC1,3,1
O=C(Nc1cccc(Cl)c1Cl)C1COc2ccccc2O1 (centres undefined),0,-3
O=C(CCCn1nnnc1CN1CCOCC1)N1CCCCC1CCn1cccn1 (centres undefined),2,2
CCCOc1ccc(C(=O)N2CCC[C@H]2C(=O)OCCc2ccc(OC)c(OC)c2)cc1,-7,-12
Cc1c(Cl)cccc1S(=O)(=O)N1CCC(c2cn(Cc3ccc(C(F)(F)F)cc3)c3ccccc23)CC1,24,12
CCn1c(SCC(=O)N/N=C\c2ccc(SC)cc2)nc2ccccc21,1,5
CCOC(=O)c1c(C)oc2ccc(OC)c(O)c12,-7,-11
CC(C)N(CC(=O)N(Cc1ccco1)Cc1cccn1C)C(=O)c1cccc(Br)c1,10,11
O=C(CN1CCN(Cc2ccccc2)CC1)NC1CCc2ccccc21 (centres undefined),-3,-4
COCCCN(CC(=O)Nc1cc(C(C)(C)C)nn1-c1ccc(C)cc1C)C(=O)Nc1ccc(Cl)cc1,-2,-1
c1ccc(C(c2ccccc2)N2CCN(Cc3nc(-c4cnccn4)no3)CC2)cc1,0,-3
Cc1ccc(C)c2c1sc(=NC(=O)C(C)(C)C)n2C,6,6
Cc1ccc2nc(-c3cccnc3NC(=O)c3ccc(F)cc3)oc2c1,27,22
COc1ccc(S(=O)(=O)N2CCOCC2)cc1N1CCN(C(=O)Cc2cccs2)CC1,25,26
O=C(c1ccc(N2CCOCC2)nc1)N1CCC(Oc2cccnc2)CC1,6,3
O=C(COCc1ccccc1)N1CCN(c2nc(C3CCOCC3)nc3c2cnn3-c2ccccc2)CC1,8,9
Cc1ccc(C2CCCN2C(=O)CSCC(N)=O)cc1C (centres undefined),0,1
c1ccc(-c2cnc(CSc3nnnn3C3CC3)o2)cc1,2,-1

# Other results
SMILES,NPYLR7 agonist,NPYLR7 agonist max-min
CCCN1CCC(Cc2noc(-c3cn4ccsc4n3)n2)CC1,1,-1
CC1C(=O)N(c2ccc(Cl)cc2Cl)CCN1C(=O)COc1ccc(Cl)cc1 (centres undefined),2,5
CCCCCCCCCCCCCC(=O)N(Cc1ccccc1)Cc1cccn1Cc1ccc(F)cc1,16,26
CC(Oc1ccc(Cl)cc1Cl)C(=O)Nc1cnccc1N(C)C (centres undefined),-4,-4
COc1cc(C2CC(C(F)(F)F)n3ncc(C(=O)N4CCOCC4)c3N2)cc(OC)c1OC (centres undefined),10,-1
CCOc1ccc(N(C)S(=O)(=O)N2CCCCC2)cc1,6,2
Nc1cc(=O)nc(SCC(=O)N2CCCc3ccccc32)n1-c1ccc(F)cc1,0,0
CSc1ccccc1OCc1cc(C(=O)N(C)Cc2ccc(F)cc2)no1,7,13
Cc1ccc(NC(=O)CN2CCN(Cc3ccc4c(c3)CCO4)CC2)cc1C,0,21
O=S(=O)(c1ccc(F)cc1)N1CCC(Cc2ccc(-c3ccccc3)cc2)CC1,24,18
CCOC(=O)N1CCc2c(sc(NC(=O)c3ccnn3CC)c2C(=O)OC)C1,10,12
O=C(NC1(c2ccccc2)CC1)c1csc2nc(-c3ccccc3)cn12,6,5
CS(=O)(=O)N1CCCc2cc(-c3csc(N)n3)ccc21,1,9
COC(CNC(=O)c1cn(C)c2c(=O)n(-c3ccc(Cl)cc3)c(=O)[nH]c12)OC,4,4
COc1cc(=O)n(-c2ccc(F)cc2)nc1C(=O)N1CCN(c2cccc(Cl)c2)CC1,13,9
O=C(NCCc1cccs1)C(=O)NCn1nnc2ccccc2c1=O,3,1
NC(=O)C1CCN(CCOc2ccc(-c3[nH]ncc3-c3ccc(Br)cc3)c(O)c2)CC1,0,-4

# Filtered by structure, the entries above with a nitro group on carbon.
SMILES,NPYLR7 agonist,NPYLR7 agonist max-min
O=[N+]([O-])c1ccc(SNc2ccc(C(F)(F)F)cc2[N+](=O)[O-])cc1,1,1
O=[N+]([O-])c1ccc(C2Oc3ccccc3C3CC(c4ccc5c(c4)OCCO5)=NN32)cc1 (centres undefined),1,2

# Screening results as filed in PubChem.

# Not all compounds are listed, so the mix of outcomes need not match the whole.
